Assay outcomes: PubChem, several laboratories
Mtb betalactam = beta-lactam sensitization of Mtb H37Rv. 0.27% of 330,000 active. M. tuberculosis H37Rv growth with meropenem, percent inhibition; hits of this screen are not shown here. AID 434955. inhibition, % at 25 µM;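 active means about 74% or more and at least 40 points above the plate without the antibiotic, then above 30% in a dose series; inconclusive means first-round hits that could not be retested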;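 further: growth measured after seven days incubation then overnight dye step; 0% = bacteria only wells and 100% = bacteria with antibiotic; twin plates without the antibiotic show which effects depend on it; some results filed as inactive read as strong as hits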
Mtb growth = M. tuberculosis H37Rv growth inhibitors, H37Rv strain (AID 1626). inhibition, % at 10 µM; hits with a dose series show IC50 in µM. M. tuberculosis H37Rv growth inhibition; higher % means a stronger effect. 0.95% of 220,000 active;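 active means confirmed in a dose series; inconclusive means inhibition above 80% but not taken into the dose series; inactive means below 80% or under 30% at every dose of the series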;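 further: bacteria incubated seven days before Alamar blue readout; 0% = bacteria only wells and 100% = bacteria with antibiotic wells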
RecA splice inh = inhibitors of M. tuberculosis RecA intein splicing; P9WHJ3; cell-free RecA intein splicing, fluorescence; inhibition, %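 (about 9 µM by stock and volumes)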; 0.75% of 290,000 active; in the data active means inhibition above about 30%; inconclusive means no clear call, values can overlap the other calls;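 further: 0% = vehicle wells and 100% = reference inhibitor control wells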
Target sequence (P9WHJ3 whole entry, looked up, canonical isoform): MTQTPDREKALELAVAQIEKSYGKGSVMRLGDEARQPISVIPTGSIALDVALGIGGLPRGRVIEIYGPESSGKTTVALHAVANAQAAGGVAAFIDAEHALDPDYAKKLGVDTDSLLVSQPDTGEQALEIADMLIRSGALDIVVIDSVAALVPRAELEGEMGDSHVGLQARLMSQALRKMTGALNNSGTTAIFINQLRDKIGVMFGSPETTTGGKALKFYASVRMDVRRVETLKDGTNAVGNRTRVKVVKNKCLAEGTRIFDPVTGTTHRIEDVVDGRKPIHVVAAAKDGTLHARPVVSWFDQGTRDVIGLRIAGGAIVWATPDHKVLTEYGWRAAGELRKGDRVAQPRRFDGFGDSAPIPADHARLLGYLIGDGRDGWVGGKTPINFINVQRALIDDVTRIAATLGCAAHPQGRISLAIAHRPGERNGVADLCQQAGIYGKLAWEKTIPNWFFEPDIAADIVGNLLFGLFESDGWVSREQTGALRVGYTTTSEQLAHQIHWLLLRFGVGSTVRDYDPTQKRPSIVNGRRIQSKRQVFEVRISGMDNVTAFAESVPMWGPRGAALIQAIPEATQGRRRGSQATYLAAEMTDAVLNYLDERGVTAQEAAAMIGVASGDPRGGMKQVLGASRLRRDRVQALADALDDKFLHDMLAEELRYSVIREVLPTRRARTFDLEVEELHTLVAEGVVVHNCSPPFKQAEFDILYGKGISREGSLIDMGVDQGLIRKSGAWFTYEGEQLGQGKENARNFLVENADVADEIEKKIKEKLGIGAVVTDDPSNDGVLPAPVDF
Arbovirus inh = antivirals against arbovirus infection; arbovirus infection cell-based antiviral screen; inhibition, % at 10 µM; 0.37% of 200,000 active;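 active means inhibition from about 30%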;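 further: bluetongue infection of BSR cells; cell survival read as ATP light after 72 h; 0% = infected wells without compound and 100% = uninfected wells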
YopH PTP inh = YopH (Yersinia) phosphatase inhibition; inhibition, %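 (about 10 µM by stock and volumes)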; 0.16% of 140,000 active; fluorescence Ex485/Em525;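 active means inhibition of 50% or more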;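 further: controls were vehicle for no effect and minimum signal wells for full effect; inactives centre near -20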
Arbovirus inh repeat = recorded beside Arbovirus inh, whose call it bears; inhibition, %; measured here: 10K subset replicate screen; many hits read low in the repeat;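 first of two repeat runs on a subset; 0% = infected and 100% = uninfected wells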
* marks the source's active call; other numbers are inactive results; ? = inconclusive; . = not tested or not shown. This is a subset; count on the stated rates, not on these rows.

The opening 13 records as a preview:
SMILES	Mtb betalactam	Mtb growth	RecA splice inh	Arbovirus inh	YopH PTP inh	others
Nc1cccc(NC(=O)CCC(=O)NCc2ccco2)c1	4	.	-2.5	.	.
CN(CC(=O)Nc1cccc(F)c1)C(=O)CCNC(=O)c1ccco1	-7	.	0.3	.	.
CCOCCCNC(=S)Nc1ccc(S(N)(=O)=O)cc1	6	3%	-0.3	9	-8
Nc1nnc(SCC(=O)OCC(=O)NC2CCCCC2)s1	-6	0%	0.3	2	.
COc1ccc(CNC(=O)CCn2c(=O)c3cccn3c3ccc(F)cc32)cc1	1	.	-2.4	.	.
Cc1c(C(C)C)c(=O)n(-c2ccc(S(=O)(=O)N3CCOCC3)cc2)n1C	-3	-10%	-4.0	5	.
COc1ccc(NC(=O)Nc2ccc(F)c(F)c2)c(OC)c1	-6	-4%	-1.1	-1	.
O=C(Nc1ccc(NC(=O)C2CC2)nc1)c1cccc(F)c1	23	-6%	1.8	-1	-40
CCOc1ccccc1C(=O)NCCC(=O)O	88	-4%	-0.7	-7	-28
CCCn1nc(C(=O)N2CCc3ccccc3C2)c2ccccc2c1=O	-9	5%	2.9	2	-6
c1cnc(N2CCN(Cc3c[nH]c4ccccc34)CC2)nc1	-10	0%	1.2	17	-27
CSc1ccc(C(=O)C2CCCN(C(=O)c3nonc3C)C2)cc1 (configuration not stated)	3	.	1.1	.	.
COCC(C)NC(=O)c1ccc(N(C)C)cc1 (configuration not stated)	-3	-4%	-4.3	3	-24	Arbovirus inh repeat=1

All compounds of this part (from the top)
SMILES	Mtb betalactam	Mtb growth	RecA splice inh	Arbovirus inh	YopH PTP inh	others
Nc1cccc(NC(=O)CCC(=O)NCc2ccco2)c1	4	.	-2.5	.	.
CN(CC(=O)Nc1cccc(F)c1)C(=O)CCNC(=O)c1ccco1	-7	.	0.3	.	.
CCOCCCNC(=S)Nc1ccc(S(N)(=O)=O)cc1	6	3%	-0.3	9	-8
Nc1nnc(SCC(=O)OCC(=O)NC2CCCCC2)s1	-6	0%	0.3	2	.
COc1ccc(CNC(=O)CCn2c(=O)c3cccn3c3ccc(F)cc32)cc1	1	.	-2.4	.	.
Cc1c(C(C)C)c(=O)n(-c2ccc(S(=O)(=O)N3CCOCC3)cc2)n1C	-3	-10%	-4.0	5	.
COc1ccc(NC(=O)Nc2ccc(F)c(F)c2)c(OC)c1	-6	-4%	-1.1	-1	.
O=C(Nc1ccc(NC(=O)C2CC2)nc1)c1cccc(F)c1	23	-6%	1.8	-1	-40
CCOc1ccccc1C(=O)NCCC(=O)O	88	-4%	-0.7	-7	-28
CCCn1nc(C(=O)N2CCc3ccccc3C2)c2ccccc2c1=O	-9	5%	2.9	2	-6
c1cnc(N2CCN(Cc3c[nH]c4ccccc34)CC2)nc1	-10	0%	1.2	17	-27
CSc1ccc(C(=O)C2CCCN(C(=O)c3nonc3C)C2)cc1 (configuration not stated)	3	.	1.1	.	.
COCC(C)NC(=O)c1ccc(N(C)C)cc1 (configuration not stated)	-3	-4%	-4.3	3	-24	Arbovirus inh repeat=1
CCN(CC)C(=O)c1sc(NC(=O)c2ccc(Br)o2)c(C(=O)OC)c1C	-10	-8%	0.3	-1	-27
CC(C)(Oc1ccc(Cl)cc1)C(=O)O	-5	.	3.0	.	.
O=C(NC1CCCCC1)C(c1cccnc1)N(C(=O)c1csnn1)C1CCCC1 (configuration not stated)	2	-7%	-0.5	1	-16
O=C(CNC(=O)c1cccs1)c1ccc(Cl)cc1	6	.	17	.	.
CN(C)C(=O)/C(=C\c1ccncc1)NC(=O)c1ccccc1	3	-6%	0.4	1	.
CCN(CC)S(=O)(=O)c1cccc(C(=O)Nc2cccnc2)c1	-15	-6%	1.7	1	-21
O=C(c1ccccc1)N1N=C(c2ccccc2)CC1c1ccccc1[N+](=O)[O-] (configuration not stated)	8	-1%	2.7	-8	-11

2 compounds drawn at random from those above:
SMILES	Mtb betalactam	Mtb growth	RecA splice inh	Arbovirus inh	YopH PTP inh	others
CCN(CC)C(=O)c1sc(NC(=O)c2ccc(Br)o2)c(C(=O)OC)c1C	-10	-8%	0.3	-1	-27
CCCn1nc(C(=O)N2CCc3ccccc3C2)c2ccccc2c1=O	-9	5%	2.9	2	-6

The results go on.
SMILES	Mtb betalactam	Mtb growth	RecA splice inh	Arbovirus inh	YopH PTP inh	others
Cc1ccc(S(=O)(=O)CC(C)N2CCOCC2)c(S(=O)(=O)CC(C)N2CCOCC2)c1 (configuration not stated)	-3	0%	-0.9	10	-13	Arbovirus inh repeat=5
O=C(CN(c1ccc(Cl)cc1)S(=O)(=O)c1ccc(Cl)c([N+](=O)[O-])c1)NCCc1ccccc1	3	2%	4.2	-1	.
O=C(COc1ccccc1)N1CCN(c2nnc(-c3ccccc3)c3ccccc23)CC1	76	2%	6.8	-8	-35
N/C(=N\OC(=O)c1cc(-c2ccccc2)nc2ccccc12)c1cccnc1	-4	2%	0.7	-18	-8
COc1cc2c(cc1OC)C(c1ccc(-c3cc(Cl)ccc3Cl)o1)=NCC2	43	13%	5.6	14	-16
COc1ccccc1C(=O)NCC(=O)N/N=C/c1cc(Br)ccc1OCc1ccccc1	1	7%	7.9	-6	-12
O=C(O)c1ccc(COc2ccccc2/C=C2/NC(=O)N(c3cccc(Cl)c3)C2=O)cc1	0	4%	-2.0	13	-26
COCc1cc(=O)[nH]c2c1c(-c1ccccc1)nn2C	10	0%	0.0	.	.
O=C1CCC(=O)N1CCSC(=S)N1CCOCC1	16	1%	0.2	.	.
COc1ccc(-n2nc(C(=O)NCC(=O)N3CCN(c4ccccc4OC)CC3)c3ccccc3c2=O)c(OC)c1	7	.	4.1	.	.
CCCc1cc(C(=O)Cc2ccc(F)cc2)c(O)cc1O	2	-8%	11	-45	0
Cn1c(=O)c2c(nc(Oc3ccccc3Br)n2C)n(C)c1=O	-1	.	0.4	.	.
COCCCNC(=O)c1ccc2c(c1)CCN2S(C)(=O)=O	-14	-4%	-2.4	-2	-23
CS(=O)(=O)N(Cc1ccccc1)c1ccc(C(=O)Nc2ccc3c(c2)OCO3)cc1	-4	-7%	1.0	-11	0
N#Cc1nc(-c2ccc([N+](=O)[O-])cc2)oc1N1CCCCC1	1	.	-1.5	.	.
CC(=O)Nc1ccc(S(=O)(=O)NCC2CCC(C(=O)NCCC3=CCCCC3)CC2)cc1 (configuration not stated)	-4	-21%	.	-4	-21
CSc1cccc(NC(=O)CC(C)n2ccnc2)c1 (configuration not stated)	4	.	0.6	.	.
CCOc1ccc(-c2nnc(N3CCOCC3)c3ccccc23)cc1	2	.	-1.1	.	.
COc1cccc(-n2c(C)nnc2SCC#N)c1	-2	3%	2.0	5	-37
COc1ccc(/C=N/OCC(=O)N2CC3(C)CC2CC(C)(C)C3)cc1 (configuration not stated)	-2	-3%	1.4	6	-15
O=C(NCc1ccc2c(c1)OCO2)c1nn2cccnc2c1Cl	3	8%	-16	-2	-23
COc1ccc(NC2c3ccccc3C(=O)N2c2cccnc2)cc1Cl (configuration not stated)	-4	44%	-1.7	9	-16	Arbovirus inh repeat=6
COc1ccc(-c2ccc(-c3nnn(CC(C)=O)n3)cc2)cc1	10	7%	0.6	4	-21
Cc1ccc(NC(=O)CN2CCC(C(N)=O)CC2)cc1[N+](=O)[O-]	13	7%	2.0	9	.
CCOC(=O)c1ccc(NS(=O)(=O)c2ccc(SC)cc2)cc1	-2	2%	3.5	8	3
O=S(=O)(c1cccc(-c2nn3c(-c4ccncc4)nnc3s2)c1)N1CCOCC1	.	-7%	-3.4	7	-40
O=C(NCc1ccccc1F)C(=O)NCC1CCCN1S(=O)(=O)c1ccccc1 (configuration not stated)	0	.	2.5	.	.
CCc1ccc(/C=C2/C(=O)NC(=O)N2C(C)=O)cc1	51	.	-2.4	.	.
Cc1cc(=O)n2nc(N3CCCC(C(=O)NCc4ccco4)C3)sc2n1 (configuration not stated)	1	6%	-0.2	9	-34
CN(c1ccc(C(=O)NCCC2=CCCCC2)cc1)S(C)(=O)=O	3	-4%	1.5	7	-18
Nc1nc2n(n1)C(c1ccccc1Cl)CC(c1ccc(F)cc1)N2 (configuration not stated)	-2	6%	1.8	6	-28	Arbovirus inh repeat=-1
NC1=NS(=O)(=O)NC1c1cccc(F)c1 (configuration not stated)	2	2%	4.6	-4	.
CCOC(=O)c1sc2nc3n(c(=O)c2c1C)CCC(C)CC3 (configuration not stated)	95	?	4.9	2	3
COc1ccc(CCNC(=O)CC(=O)N/N=C/c2ccc(Br)cc2)cc1OC	-4	.	-0.8	.	.
CCOC(=O)C(NC(C)=O)(N1CCOCC1)C(F)(F)F (configuration not stated)	7	4%	2.3	9	-35
COc1ccc(NCC(=O)Nc2ccc(C#N)cc2)cc1Cl	98	8.3µM*	1.0	-2	-29
COc1ccc(-n2nc(C(=O)NCC(=O)Nc3cc(OC)c(OC)c(OC)c3)c3ccccc3c2=O)cc1Cl	1	.	-0.5	.	.
O=[N+]([O-])c1ccc(O)c([N+](=O)[O-])c1	-4	-7%	-0.6	.	.
Cc1csc(N2CCCC2c2nc3cc(C(F)(F)F)ccc3n2CCOCCO)n1 (configuration not stated)	0	-9%	-0.6	.	.
O=C1CCC(C(=O)OCc2cc(=O)oc3ccc4ccccc4c23)=NN1	2	-3%	-1.9	.	.
C/C(=N\NC(=O)Cn1cc([N+](=O)[O-])cn1)c1ccc(O)cc1	1	1%	0.7	.	.
CC(=O)n1cc(C2C(=O)CC(C)(C)CC2=O)c2ccccc21	7	-2%	0.9	4	-9
CCOc1ccc(OCCC(=O)N(CCC2=CCCCC2)c2c(N)n(Cc3ccccc3)c(=O)[nH]c2=O)cc1	-11	.	1.7	.	.
CCN(CC)CCCNC(=O)Cn1ccc2ccccc2c1=O	-5	-3%	-3.0	2	.
COCCOC(=O)c1[nH]c2c(c1C)C(=O)CC(c1ccc(OC)c(OC)c1)C2 (configuration not stated)	-7	.	6.1	.	.
O=C1C(Nc2ccccc2)=C2CCCC=C2N1c1ccccc1	4	7%	-2.9	1	.
CC1CC(C)CN(S(=O)(=O)c2cc3c4c(c2)C(C)C(=O)N4CCC3)C1 (configuration not stated)	-5	.	-0.9	.	.
O=C(O)CCCn1cc(NC(=O)COc2ccc(F)cc2)cn1	0	.	1.9	.	.
O=C(c1ccccc1)c1ccccc1N/C=C/c1nnnn1-c1ccccc1	-4	-9%	2.0	-7	5
CCCNS(=O)(=O)c1ccc(OCC(=O)N2CCN(Cc3ccc4c(c3)OCO4)CC2)c(C)c1	-3	.	1.2	.	.
CCOc1ccc(CC(=O)NNC(=S)Nc2ccc(OC)c(OC)c2)cc1	-2	7%	-0.1	-2	.
N=c1sccn1CC(=O)Nc1ccc2c(c1)CCC2	44	12%	-5.0	-2	-4
CCCCOC(=O)c1cc(=O)[nH]c2ccc(C)cc12	1	4%	-3.1	6	.
CCOC(=O)N1CCC(N2CC34C=CC(O3)C(C(=O)Nc3ccc(OCC)cc3)C4C2=O)CC1 (configuration not stated)	-2	-1%	0.4	9	-44	Arbovirus inh repeat=3
C/C(=N\OCC(=O)Nc1ccccc1C(=O)O)c1cccs1	-11	-9%	1.6	16	.
CCc1ccc(CNC(=O)C2CCN(S(=O)(=O)N3CCC4(CC3)OCCO4)CC2)cc1	1	2%	1.4	9	.
CCNc1nc(NC(C)C)nc(N(C#N)CCOc2ccc(Cl)cc2Cl)n1	4	-2%	17	-38	9
COc1cc(OC)c(OC)cc1CNCc1ccco1	-6	.	-1.5	.	.
Cc1ccc(-n2ncc3c(=O)n(CC(N)=O)cnc32)cc1	4	.	1.1	.	.
COc1ccc(CN(CC(=O)NCc2ccccc2)C(=O)CCC(=O)Nc2ccccn2)cc1	6	.	-7.2	.	.
(listing goes on)
SMILES	Mtb betalactam	Mtb growth	RecA splice inh	Arbovirus inh	YopH PTP inh	others
O=C(Nc1nc2ccccc2s1)C1CC(=O)N(c2ccc(Cl)cc2)C1 (configuration not stated)	-6	9%	5.2	22	-31
COc1ccc(-c2nc3oc4cc(OC)ccc4c(=O)c3c(=O)n2Cc2ccco2)cc1	100	-3%	2.2	24	-5
CCCc1nnc(NC(=O)c2cccc(OC)c2)s1	-13	-2%	-4.1	5	-8
COC(=O)N/N=C/c1ccc(/C=N/NC(=O)OC)cc1	-2	1%	6.1	12	.
O=C(NCCCN=C1NS(=O)(=O)c2ccccc21)c1ccc(S(=O)(=O)N2CCCCC2)cc1	2	-3%	-0.8	-9	-30
c1ccc2c(c1)CCc1c-2nc2ccccc2c1N1CCOCC1	45	4%	.	.	.
Cc1csc(NC(=O)c2sccc2C)n1	-1	.	-1.1	.	.
CCCOc1ccc2c(CC)cc(=O)oc2c1C	-1	6%	-1.1	0	-35
CC/C(C)=N/NC(=O)c1[nH]c2ccc(C)cc2c1-c1ccccc1	98	?	3.1	-6	.
COc1cc(C(=O)NCc2nnc(SCC(=O)N3CCc4ccccc43)o2)cc(OC)c1OC	-8	.	3.0	1	-12
C=CCN1C(=O)c2ccc(C(=O)Nc3ccccn3)cc2C1=O	-5	.	-0.7	.	.
